Mtb H37Rv = M. tuberculosis H37Rv growth inhibitors, H37Rv strain (AID 1626). M. tuberculosis H37Rv growth inhibition; higher % means a stronger effect. inhibition, % at 10 µM; hits with a dose series show IC50 in µM. actives 0.95% (n = 220,000);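 active = confirmed in a dose series; inconclusive = inhibition above 80% but not taken into the dose series; inactive = below 80% or under 30% at every dose of the series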;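 note: bacteria incubated seven days before Alamar blue readout; 0% = bacteria only wells and 100% = bacteria with antibiotic wells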
Mtb betalactam = beta-lactam sensitization of Mtb H37Rv, H37Rv; M. tuberculosis H37Rv growth with meropenem, percent inhibition; hits of this screen are not shown here; inhibition, % at 25 µM; AID 434955, 2010; actives 0.27% (n = 330,000);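 active = about 74% or more and at least 40 points above the plate without the antibiotic, then above 30% in a dose series; inconclusive = first-round hits that could not be retested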;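 note: growth measured after seven days incubation then overnight dye step; 0% = bacteria only wells and 100% = bacteria with antibiotic; twin plates without the antibiotic show which effects depend on it; some results filed as inactive read as strong as hits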
Arbovirus anti = antivirals against arbovirus infection, primary screen, cell-based, full library, 10K replicate subset; arbovirus infection cell-based antiviral screen; actives 0.37% (n = 200,000); AID 1251, 2008; inhibition, % at 10 µM;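 active = inhibition from about 30%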;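 note: bluetongue infection of BSR cells; cell survival read as ATP light after 72 h; 0% = infected wells without compound and 100% = uninfected wells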
RecA intein inh = Mtb RecA intein splicing inhibitors, primary screen, biochemical, fluorescence, HTS. Protein RecA (Mycobacterium tuberculosis (strain ATCC 25618 / H37Rv)), P9WHJ3. cell-free RecA intein splicing. inhibition, %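 (about 9 µM by stock and volumes)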. AID 2221, 2009. actives 0.75% (n = 290,000); in the data active = inhibition above about 30%; inconclusive = no clear call, values can overlap the other calls;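 note: 0% = vehicle wells and 100% = reference inhibitor control wells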
Target sequence (P9WHJ3 whole entry, looked up): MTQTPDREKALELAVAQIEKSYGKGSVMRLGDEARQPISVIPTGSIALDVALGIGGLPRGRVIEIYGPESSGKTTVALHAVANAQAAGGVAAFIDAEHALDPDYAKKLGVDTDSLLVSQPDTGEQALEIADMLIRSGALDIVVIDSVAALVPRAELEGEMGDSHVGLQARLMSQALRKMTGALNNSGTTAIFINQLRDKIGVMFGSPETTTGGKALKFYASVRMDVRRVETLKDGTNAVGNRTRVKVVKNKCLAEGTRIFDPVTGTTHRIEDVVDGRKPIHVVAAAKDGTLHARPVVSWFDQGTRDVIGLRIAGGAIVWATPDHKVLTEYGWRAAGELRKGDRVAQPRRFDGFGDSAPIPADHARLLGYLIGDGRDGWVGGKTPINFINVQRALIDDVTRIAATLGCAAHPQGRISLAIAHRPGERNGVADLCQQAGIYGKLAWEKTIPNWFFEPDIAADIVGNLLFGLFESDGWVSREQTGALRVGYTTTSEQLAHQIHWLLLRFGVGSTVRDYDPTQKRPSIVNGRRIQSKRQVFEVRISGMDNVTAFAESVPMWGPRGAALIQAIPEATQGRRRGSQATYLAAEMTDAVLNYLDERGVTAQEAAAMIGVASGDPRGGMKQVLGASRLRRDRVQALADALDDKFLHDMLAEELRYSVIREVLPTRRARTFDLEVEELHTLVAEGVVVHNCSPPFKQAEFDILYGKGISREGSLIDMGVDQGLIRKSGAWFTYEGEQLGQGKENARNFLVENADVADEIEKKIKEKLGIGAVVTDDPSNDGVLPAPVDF
YopH inh = YopH tyrosine phosphatase inhibitors, primary screen, biochemical, fluorescence Ex485/Em525 | YopH tyrosine phosphatase [Yersinia enterocolitica] | inhibition, %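 (about 10 µM by stock and volumes)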 | actives 0.16% (n = 140,000);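 active = inhibition of 50% or more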;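 note: controls were vehicle for no effect and minimum signal wells for full effect; inactives centre near -20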
Arbovirus anti repeat = second read-out of Arbovirus anti, no call of its own (marks repeat the call); inhibition, %; measured here: 10K subset replicate screen; many hits read low in the repeat;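 first of two repeat runs on a subset; 0% = infected and 100% = uninfected wells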
* marks the source's active call; other numbers are inactive results; ? = inconclusive; nt = no result given. The list is partial; the hit share may differ from the screen's.

SMILES	Mtb H37Rv	Mtb betalactam	Arbovirus anti	RecA intein inh	YopH inh	others
COc1ccc(NC(=O)Nc2c(C)n(C)n(-c3ccccc3)c2=O)cc1OC	nt	-2	nt	-0.8	nt
O=C(Nc1ccc(Cl)cc1)OCCn1nnnc1C(c1ccccc1)N1CCOCC1 (stereo not drawn)	-5%	-6	-1	2.4	3
CC1(C)CC2CC(C)(CN2S(=O)(=O)c2ccc(N)cc2)C1 (stereo not drawn)	-6%	-2	2	0.9	2	Arbovirus anti repeat=-2
CCN(CC)CC#CCC(OC)(c1ccccc1)c1ccccc1	1%	3	-4	2.5	nt
CCOc1ccc(NC(=S)N(CCc2ccncc2)C(C)C)cc1	41%	-8	0	0.7	nt
COC(=O)C(NC(C)=O)(Nc1ccc(C)cn1)C(F)(F)F (stereo not drawn)	4%	-9	nt	-2.9	nt
CCOC(=O)Cc1ccc(NC(=O)c2cccc([N+](=O)[O-])c2)cc1	7%	-5	-4	-2.8	nt
COc1ccc(C(=O)c2cnc3cc4c(cc3c2C)OCO4)cc1	2%	0	-4	-0.6	0
CCn1c(C)cc(/C=C2\NC(=O)N(Cc3ccccc3)C2=O)c1C	-3%	-9	2	-3.5	-19
O=C(O)CN1C(=O)/C(=C\c2cccc(OCc3ccc(F)cc3)c2)SC1=S	nt	3	nt	14	nt
O=C(C(NS(=O)(=O)c1cccc2nsnc12)c1ccccc1)N1CCN(c2ccccn2)CC1 (stereo not drawn)	-12%	?	0	4.1	-39
COC(=O)c1ccc(OCC(=O)c2ccccc2OC)cc1	-8%	-18	7	6.9	-7
COC(=O)c1ccc(N=NN2CCCCC2)cc1	0%	4	2	nt	nt
Cc1ccc(-c2nc(C#N)c(NCCN3CCCCC3)o2)cc1	-6%	-10	-13	nt	-25	Arbovirus anti repeat=-4
CCN(CC)CCN1C(=O)c2ccccc2NC1c1ccc(N(C)C)cc1 (stereo not drawn)	0%	-5	15	-2.8	-7
Oc1ccc(Br)cc1/C=N/n1cnc2ccccc21	7%	28	5	-4.3	-5
Cc1cc(C)n(-c2ccc(F)cc2)c(=O)c1C(=O)O	3%	-1	1	-2.3	-58
O=C(O)c1cc2ccc3ccccc3c2oc1=O	16%	86	2	-37	-28
Cc1nc(-c2ccc(C#N)cc2)cs1	-5%	6	nt	nt	nt
c1ccc2c(Nc3nnc(-c4ccncc4)s3)cccc2c1	25%	65	-3	-0.5	-2
CCOc1cc(/C=N\NC(=O)Cc2ccccc2)ccc1OCC(=O)Nc1ccc(C)c(C)c1	nt	-2	1	nt	-21
Cn1c(=O)[nH]c(=O)c2c1nc(Br)n2CCCSc1nc2ccccc2o1	5%	?	-19	1.0	-14
O=c1ncn(-c2ccc(F)cc2)c2ncccc12	-2%	-8	3	4.2	-17
CCCCOc1ccc(/C=C/C(=O)OCC(=O)c2c(N)n(C)c(=O)n(C)c2=O)cc1OCC	-8%	-7	-5	0.3	nt
COc1ccc(S(=O)(=O)NC2CC(C)(C)NC(C)(C)C2)cc1C(C)C	nt	-9	nt	2.2	nt
Cc1ccc([N+](=O)[O-])cc1-c1ccc(/C=N/NC(=O)c2cc3c(ccc4ccccc43)o2)o1	nt	7	-13	-0.3	27
CCOC(=O)N1CCC(NC(=O)Cn2ncc3c2-c2cc(C)ccc2OC3)CC1	-2%	-1	8	-2.0	-24
CN1C(=O)c2ccc(NC(=O)c3c(C(=O)O)cccc3[N+](=O)[O-])cc2C1=O	nt	-2	nt	-4.5	nt
COc1ccc(Nc2nc(Nc3ccc(OC)cc3)nc(SC3=NCCS3)n2)cc1	6%	0	23	4.1	-7
O=C1NCCC12C(=O)Nc1ccccc12 (stereo not drawn)	12%	-7	nt	-2.1	nt
CC(=O)N1c2ccccc2N2C(c3c(C)c(C)cc(C)c3C)=NON12	6%	nt	-15	nt	nt
COc1ccc2oc(C(=O)OCC(=O)NC(=O)NC(C)C)c(C)c2c1	-4%	1	12	-5.7	-4
O=C(O)Cn1ncc2c1-c1ccoc1CC2	-2%	5	-4	0.0	-8	Arbovirus anti repeat=5
CCOC(=O)C1CCN(C(=O)Cn2cnc3sc(C)c(S(=O)(=O)N4CCOCC4)c3c2=O)CC1	nt	-5	nt	-16	nt
CCOC(=O)Cn1c(Br)nc2c1c(=O)[nH]c(=O)n2C	-4%	5	3	-0.6	-16
COC(=O)Cn1c(=NC(=O)c2cc(OC)c(OC)c(OC)c2)sc2cc(OC)ccc21	3%	-1	-8	-3.5	-13
CC1=CC2=NC(=O)/C(=C\c3cc(C)n(-c4ccccc4)c3C)C(=N)N2O1	4%	3	5	-5.5	-8
O=C(Cc1n[nH]c(=O)c2ccccc12)OCc1c(Cl)cccc1Cl	18%	14	nt	1.3	nt
CC(CCc1ccccc1)NC(=O)COC(=O)c1ccc(NC(N)=O)cc1 (stereo not drawn)	nt	7	nt	-2.7	nt
Cc1cc(C=NCCCO)c(C)n1-c1cc(Cl)ccc1Cl	-3%	nt	4	3.2	nt
COc1ccc(OC)c(NC(=O)C2CCCNC2=O)c1 (stereo not drawn)	0%	-4	-1	-0.1	-46	Arbovirus anti repeat=5
O=C(NNC(=S)NCc1ccccc1)c1cccc([N+](=O)[O-])c1	-4%	-1	6	2.0	nt
O=C(COC(=O)c1ccc([N+](=O)[O-])s1)NCc1ccc(F)cc1	7%	nt	-2	-1.5	-20
O=C(Nc1nc2ccccc2s1)C1CC(=O)N(c2ccc(Br)cc2)C1 (stereo not drawn)	1%	-4	7	7.1	-18
Clc1ccc(-c2nn3cnnc3s2)c(Cl)c1	1%	3	-8	-1.0	-48

Random excerpt: 7 compounds from above
SMILES	Mtb H37Rv	Mtb betalactam	Arbovirus anti	RecA intein inh	YopH inh	others
COc1ccc(OC)c(NC(=O)C2CCCNC2=O)c1 (stereo not drawn)	0%	-4	-1	-0.1	-46	Arbovirus anti repeat=5
CC1=CC2=NC(=O)/C(=C\c3cc(C)n(-c4ccccc4)c3C)C(=N)N2O1	4%	3	5	-5.5	-8
O=C(NNC(=S)NCc1ccccc1)c1cccc([N+](=O)[O-])c1	-4%	-1	6	2.0	nt
CC(=O)N1c2ccccc2N2C(c3c(C)c(C)cc(C)c3C)=NON12	6%	nt	-15	nt	nt
O=C(Nc1nc2ccccc2s1)C1CC(=O)N(c2ccc(Br)cc2)C1 (stereo not drawn)	1%	-4	7	7.1	-18
O=C(O)Cn1ncc2c1-c1ccoc1CC2	-2%	5	-4	0.0	-8	Arbovirus anti repeat=5
Clc1ccc(-c2nn3cnnc3s2)c(Cl)c1	1%	3	-8	-1.0	-48

(next part)
SMILES	Mtb H37Rv	Mtb betalactam	Arbovirus anti	RecA intein inh	YopH inh	others
Cc1cc(-c2ccccc2)nc(SCc2ccc(C(=O)O)o2)n1	-4%	7	8	-0.1	-37
CCN(CC)CCCN(Cc1cc2cc3c(cc2[nH]c1=O)OCO3)C(=S)NCc1ccco1	0%	2	-5	-4.0	nt
CC1CCCCC1NC(=O)c1ccc(-n2cncn2)c([N+](=O)[O-])c1 (stereo not drawn)	nt	-6	nt	-3.2	nt
COCC(C)n1c(COc2ccccc2F)nnc1SCC(=O)Nc1oc(C)c2c(C)n[nH]c(=O)c12 (stereo not drawn)	nt	-10	nt	6.0	nt
CCN(c1ccccc1)S(=O)(=O)c1ccc(OC)c(NC(=O)C2CC(=O)N(Cc3ccccc3)C2)c1 (stereo not drawn)	-4%	-8	nt	4.2	nt
Cc1cc(Cl)ccc1NC(=S)N1CCOCC1	-3%	3	-8	-0.7	-39
CC(=O)C(Sc1ccc2nnc(-c3ccc(F)cc3)n2n1)C(C)=O	-9%	-3	-1	-1.8	-44	Arbovirus anti repeat=-2
O=C(CN1CCN(C(=O)C2CCCO2)CC1)Nc1c(Cl)cccc1Cl (stereo not drawn)	nt	1	nt	2.4	nt
CNC(=O)CCc1nc(-c2ccc(C(C)(C)C)cc2)no1	6%	14	4	0.3	-38
COC(=O)Cn1c(N)[n+](Cc2ccccc2)c2ccccc21	nt	-13	nt	-1.8	nt
Cc1noc(C)c1COc1cccc(C(=O)OC(C)C(=O)Nc2ccc3c(c2)OCO3)c1 (stereo not drawn)	1%	?	-20	8.3	-24
CCCN1C(=O)c2ccc(C(=O)NC3CCCCC3)cc2C1=O	-8%	13	2	-1.5	-22
O=C(Oc1cc(Cl)cc(Cl)c1)c1cnc2n(c1=O)CCS2	-5%	-2	nt	1.3	nt
CC(C)(C)c1ccc(C2(C)NC(=O)N(CC(=O)c3ccc[nH]3)C2=O)cc1 (stereo not drawn)	0%	4	12	-0.4	-48
COC(=O)Nc1nnc(COc2ccccc2)s1	-4%	-2	nt	0.9	nt
Fc1ccc(CNCCc2ccccc2)cc1	6%	0	4	-0.4	nt
O=C(Nc1cccc([N+](=O)[O-])c1)N1CCN(c2ccccc2)CC1	-7%	-6	-13	-0.9	nt
Cc1cc2oc(=O)cc(CN3CCCCC3)c2cc1C(C)C	11%	55	4	3.6	17
C/C(=N\NC(=O)c1cccs1)c1c(O)cc(C)oc1=O	nt	29	nt	-4.0	nt
CC(=O)c1sc(NC(=O)COc2ccc(C(C)C)c(C)c2)nc1C	0%	0	1	-2.8	nt
CC(=O)Nc1ccccc1C(=O)OCC(=O)Nc1ncccn1	nt	-1	nt	-1.5	nt
Cc1ccsc1/C=N\NC(=O)Cn1nnc2ccccc21	0%	2	-10	-4.5	-16
COC(=O)c1c(NC(=O)c2nc3nc(C)cc(C(F)F)n3n2)sc2c1CCC2	-8%	6	-1	-2.5	-46
CCOC(=O)CNC(=O)CSc1nnc(-c2ccc(OC)cc2)n1CC	-4%	-10	3	-0.4	-17
COC(=O)CCCCCCCCC(O)CN(C)C (stereo not drawn)	0%	18	nt	-0.1	nt
CN(C(=O)COC(=O)C1CSC2(C)CCC(=O)N12)c1ccccc1 (stereo not drawn)	nt	-9	nt	1.8	nt
Cc1ccc(-n2c3c(cc(C(=O)N4CCN(C)CC4)c2=O)C(=O)CC(C)(C)C3)cc1	-1%	1	3	2.2	-38	Arbovirus anti repeat=1
Cc1cc(N)n(-c2ccccc2C)n1	0%	3	2	2.2	nt
Cc1csc2c(N3CCN(C(=O)c4ccc(C(C)(C)C)cc4)CC3)ncnc12	5%	17	nt	9.2	nt
CN(C)c1ccc(C(CNC(=O)c2ccco2)N2CCCC2)cc1 (stereo not drawn)	nt	1	nt	2.9	nt

Three compounds from above, sorted by number of heavy atoms, largest number first:
SMILES	Mtb H37Rv	Mtb betalactam	Arbovirus anti	RecA intein inh	YopH inh	others
COCC(C)n1c(COc2ccccc2F)nnc1SCC(=O)Nc1oc(C)c2c(C)n[nH]c(=O)c12 (stereo not drawn)	nt	-10	nt	6.0	nt
C/C(=N\NC(=O)c1cccs1)c1c(O)cc(C)oc1=O	nt	29	nt	-4.0	nt
Oc1ccc(Br)cc1/C=N/n1cnc2ccccc21	7%	28	5	-4.3	-5

The list continues:
SMILES	Mtb H37Rv	Mtb betalactam	Arbovirus anti	RecA intein inh	YopH inh	others
COc1cccc(-c2nc3ccc(C(=O)N4CCCC(O)C4)cc3o2)c1 (stereo not drawn)	nt	0	nt	-7.8	nt
COc1ccc(N2CCN(C(=O)c3ccc(CS(=O)Cc4ccc(Cl)cc4)o3)CC2)cc1 (stereo not drawn)	nt	12	nt	0.1	nt
COC(=O)c1cc2c(-c3ccccc3)cc3ccccn3c-2c1C(=O)OC	0%	20	-16	-2.3	6
COc1ccc(CNC(=O)c2cccc3c2C(=O)N(Cc2cccnc2)C3)cc1	-3%	-3	-7	0.8	-9
CC(/C=C/c1ccc2c(c1)OCO2)=N/NC(=O)COc1ccc(C)cc1	7%	6	0	-0.5	-25
COc1ccc(-n2c3c(cc(C(=O)Nc4ccc(C)cc4)c2=O)C(=O)CCC3)cc1	4%	-13	nt	-0.3	-19
CCCCNC(=O)c1cc2c(=O)n(CC)c3ccccc3c2s1	nt	3	nt	1.1	nt
